Measles inh – inhibitors of measles virus growth in infected cells | infected Vero cells, GFP fluorescence, 64 h; stronger effect = lower value | z-score (no concentration beside the values) | hit rate 0.1% among 33,000;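 active means z-score under -3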;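 further: score is relative to mean and SD of the compound wells of a plate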
Numbers without * were called inactive. Only part of the results is shown, so the mix of outcomes need not match the whole.

Molecule,Measles inh
O=c1oc2ccc(Br)cc2cc1-c1nc(-c2cccs2)cs1,-0.11
CC1=C(C(=O)OCCCCl)C(c2ccc(C)cc2)NC(=O)N1 (configuration not stated),-0.6
COc1cc2c(C(=O)NCCN3CCN(c4cccc(Cl)c4)CC3)c3n(c(=O)c2cc1OC)CCc1ccccc1-3,0.82
COc1ccccc1N1CCN(CC(O)COc2cc(C)c(Cl)c(C)c2)CC1 (configuration not stated),-0.17
COc1ccc(-c2csc(Nc3ccc(C)c(C)c3)n2)cc1F,0.06
COc1ccc2nc(NC(=O)c3ccc(S(=O)(=O)N4CCc5ccccc54)cc3)sc2c1,-0.76
CC(NC(=O)c1cc(-c2ccccn2)nc2ccc(S(=O)(=O)N3CCOCC3)cc12)c1ccccc1 (configuration not stated),0.8
COC(=O)C1=C(C)NC2=C(C(=O)CC(C)(C)C2)C1c1ccc(OCc2ccc(F)cc2)cc1 (configuration not stated),0.27
CCOc1ccc(C(=O)Nc2ccc3oc(-c4cccc(C)c4)nc3c2)cc1[N+](=O)[O-],-0.42
CCOC(=O)c1c(C)oc2ccc(N(C(=O)c3ccncc3)S(=O)(=O)c3ccc(C)cc3)cc12,-0.32
Cc1nc(C(F)(F)F)nc(Nc2ccc(Br)cc2)c1C#N,0.82
CCOc1ccc2nc(NC(=O)c3cccs3)sc2c1,-0.38
O=C(c1ccccc1F)N1CCN(c2cc(N3CCCCC3)c(F)cc2[N+](=O)[O-])CC1,-0.41
O=C(NCC1CCCO1)C1CCN(S(=O)(=O)N2CCCC2)CC1 (configuration not stated),2.7
COC(=O)c1cc(NS(=O)(=O)c2ccc(NC(C)=O)cc2)cc(C(=O)OC)c1,-0.31
CCOC(=O)c1c(NC(=O)c2ccco2)sc(C(=O)Nc2cc(C(F)(F)F)ccc2Cl)c1C,-1.3
CCCOc1ccc(C(=O)CCN2CCOCC2)cc1,-2.2
O=C(O)CCCCNS(=O)(=O)c1ccc(Cl)c(C(F)(F)F)c1,-0.8
COC(=O)C1=C(C)N(C)C(C)=C(C(=O)OC)C1c1cccc(Cl)c1,1.4
CCOCCCNC(=O)c1cnn2c(C)c(Cc3ccccc3C)c(C)nc12,-0.23
CC1CCN(C(=O)Cn2ncc3c(=O)oc4ccccc4c32)CC1,-0.42
Cc1ccc(OCCSc2nc3ccc(Br)cc3[nH]2)cc1C,-0.92
CCOc1ccc(CCNC2CC(=O)N(c3ccc(Cl)cc3)C2=O)cc1OCC (configuration not stated),-0.86
COc1ccc(C2C(C(=O)Nc3cc(C)c(Cl)cc3OC)c3ccccc3C(=O)N2C)cc1 (configuration not stated),0.06
COc1cccc(-n2cc(C(=O)NCCC(=O)Nc3ccc(C(F)(F)F)cc3)c3ccccc3c2=O)c1,0.78
CCOc1ccc(NC(=O)c2c(NC(=O)c3ccccc3F)sc3c2CCC3)cc1,-0.51
O=C(CSc1nc2ccc(N3CCOCC3)cc2c(=O)n1Cc1ccc2c(c1)OCO2)c1ccccc1,0.99
CC(O)CNc1ncnc2c1c(-c1ccccc1)cn2-c1ccc(Br)cc1 (configuration not stated),-1.9
Cc1nc(N2CCCCC2C)c2c(C)c(C(=O)Nc3ccc(C)c(F)c3)sc2n1 (configuration not stated),-0.64
Cc1cc(N2C(=O)c3ccc(C(=O)NCCc4ccccc4)cc3C2=O)no1,-0.73
C1=CCC(CN2CCN(Cc3ccccn3)CC2)CC1 (configuration not stated),0.18
CCOC(=O)C1=C(C)NC2=C(C(=O)C(C(=O)OCC)C(c3ccc(OC)cc3)C2)C1c1ccccn1 (configuration not stated),-0.53
CCC(=O)N1CCc2cc(Br)cc(S(=O)(=O)CCC(=O)NC3CCCc4ccccc43)c21 (configuration not stated),-0.69
CC12CCC(c3c(C(=O)O)nn(-c4ccccc4)c31)C2(C)C (configuration not stated),-0.25
COc1ccccc1Cn1c(=S)[nH]c2cc(C(=O)NCC3CCCO3)ccc2c1=O (configuration not stated),0.02
COc1ccc(N2C(=O)CCC(C(=O)NCc3ccccn3)C2c2ccc(F)cc2)cc1 (configuration not stated),-0.83
COc1ccc(C(=O)Nc2cccc(-c3nc4ncccc4o3)c2C)cc1[N+](=O)[O-],0.09
O=C(Nc1c2c(nn1-c1ccc(F)cc1)CSC2)c1cc2ccccc2oc1=O,0.17
COc1ccc(-n2nc([N+](=O)[O-])c(=Nc3cccc(OC)c3)n2O)cc1,0.65
O=C1CSc2ccc(C(=O)NCc3ccccc3)cc2N1,0.24
O=c1oc2ccccc2c2c1nnn2CCO,1.6
CC1CC(C)(C)NC(=S)N1CCCC(=O)NCCc1ccc(Cl)cc1 (configuration not stated),-0.63
CCOc1ccc(Nc2cc(C(=O)NCc3ccc(Cl)cc3)c3ccccc3n2)cc1,1.4
Fc1ccc(Nc2nc(NCc3ccccc3)c3ccccc3n2)cc1,-0.27
O=C1Nc2ccc(Br)cc2C(O)(C(=O)NCCN2CCOCC2)N1c1ccc(Cl)cc1 (configuration not stated),0.61
CCC1C(=O)N=C(SCC(=O)Nc2ccc(S(N)(=O)=O)cc2)N(c2ccccc2)C1=O (configuration not stated),1.1
COc1ccc(Cn2c(=S)[nH]c3c(sc4ccccc43)c2=O)cc1,-1.4
O=C(NCc1ccccc1Cl)C1CCCN(S(=O)(=O)c2cccs2)C1 (configuration not stated),-0.27
Cc1ccc(S(=O)(=O)N2CCCCCC2)cc1C,-0.46
O=C(CCCCN1CCCCC1)c1ccccc1,1
Cc1ccccc1NC(=O)C(=O)NCCCN1CCOCC1,-0.69
O=C(CCNS(=O)(=O)c1cccs1)NCc1ccco1,-0.81
CC(c1ccccc1)C(CC(=O)O)C(=O)Nc1ccccc1I (configuration not stated),0.84
CCOc1cc(C2C3=C(CC(C)(C)CC3=O)Nc3ncnn32)ccc1OC(F)F (configuration not stated),-0.14
CCC(=O)Nc1ccccc1-c1ccccc1NC(=O)CC,-0.35
COc1ccc(C2CC(=O)C3=C(C2)Nc2ccccc2N(C(=O)CCC(=O)O)C3c2ccccc2Cl)cc1 (configuration not stated),0
COc1ccc(Cl)cc1NS(=O)(=O)c1cccc2cccnc12,-0.4
CCOC(=O)c1sc(NC(=O)CSc2nc(N)cc(=O)[nH]2)nc1C,0.96
CCOC(=O)c1sc(=S)n(-c2cc(OC)ccc2OC)c1N,-0.76
Cc1cccc(NC(=O)C2CCCN(S(=O)(=O)c3ccc(Br)s3)C2)c1C (configuration not stated),-0.82

Other entries follow.
molecule | Measles inh
CCCCN(CCCC)S(=O)(=O)c1cccc2nonc12 | 0.2
CC(NS(=O)(=O)c1cccc2cccnc12)c1ccccc1 (configuration not stated) | -0.44
CC(C)C(=O)Nc1c2c(nn1-c1ccc(F)cc1)CS(=O)C2 (configuration not stated) | 1.1
COc1ccc(C2/C(=C(\O)c3ccccc3)C(=O)C(=O)N2c2ccc(C)c(Cl)c2)cc1 (configuration not stated) | -0.44
COc1cc(C2NC(=S)NC(C)=C2C(=O)Nc2ccccc2)ccc1OCc1ccccc1 (configuration not stated) | -0.59
COc1ccc(-c2cnnn2-c2ccc(NC(=O)c3ccc(Br)o3)cc2)cc1 | 0.82
COc1ccc(N=C2C(=O)Nc3ccc(C)c(Br)c32)cc1 | -0.14
CC(C)(C)c1ccc(S(=O)(=O)N2CCCC2C(=O)N2CCOCC2)cc1 (configuration not stated) | 0.12

In a second layout: 4 of the compounds above.
Measles inh	smiles
-0.14	COc1ccc(N=C2C(=O)Nc3ccc(C)c(Br)c32)cc1
0.82	COc1ccc(-c2cnnn2-c2ccc(NC(=O)c3ccc(Br)o3)cc2)cc1
1.1	CC(C)C(=O)Nc1c2c(nn1-c1ccc(F)cc1)CS(=O)C2 (configuration not stated)
-0.44	CC(NS(=O)(=O)c1cccc2cccnc12)c1ccccc1 (configuration not stated)

Other records
molecule | Measles inh
CC(=O)Oc1c(Cc2ccccc2)c(=O)oc2ccccc12 | -0.59
COc1cc(NC(=O)c2ccc(-c3ccc([N+](=O)[O-])cc3)o2)cc(OC)c1 | -0.29
O=C(CCn1c(=S)[nH]c2cc3c(cc2c1=O)OCO3)NCc1ccccc1 | -0.73
CCOc1ccc2nc(N3CCCCC3)sc2c1 | 0.41
COc1ccc(C2C3=C(CCCC3=O)Nc3nc(SCc4ccc5ccccc5c4)nn32)cc1 (configuration not stated) | -0.87
Cc1ccc(/C(O)=C2\C(=O)C(=O)N(c3nnc(C)s3)C2c2ccc(C)cc2)cc1 (configuration not stated) | 2.5
O=C1CN(C(=O)c2ccccc2Br)C(c2ccc(F)cc2)c2cc(F)ccc2N1 (configuration not stated) | -1.2
Cc1nc2ccc3nc(NC(=O)c4cccc(Br)c4)sc3c2s1 | 1.3
Cc1ccc(N2C(=O)C(=O)/C(=C(/O)c3ccccc3)C2c2cccc(F)c2)cc1Br (configuration not stated) | 0.82
CCOc1ccc(-c2nnc(NC(=O)C3CCCCC3)s2)cc1 | -0.57
CCNS(=O)(=O)c1ccc(NC(=O)c2cc(C(F)(F)F)nn2C)cc1 | -0.04
CCCc1cc(=O)[nH]c(/N=C(/N)Nc2cccc(C)c2)n1 | -0.18
Nc1[nH]nc2nc(-c3ccco3)c3c(c12)CCCC3 | -0.43
CS(=O)(=O)c1ccc2nc(NC(=O)c3cccs3)sc2c1 | -1.1
O=C(CCN1C(=O)COc2ccccc21)N1CCCC1 | -0.78
Cc1ccc(-c2nc3cc(N=Cc4cc([N+](=O)[O-])ccc4O)ccc3o2)cc1C | -0.84
O=C(CN1C(=O)c2ccccc2C1=O)Nc1nc(-c2ccncc2)cs1 | 1.9
Cc1ccc(Nc2nc(-c3cccnc3)cs2)cc1 | -1.1
Cc1nc2cc(NC(=O)c3cccc([N+](=O)[O-])c3)ccc2s1 | 0.41
COC(=O)c1cc2cc(Br)ccc2oc1=O | -0.02
CC1SC(c2ccc(F)cc2)NC1=O (configuration not stated) | -0.26
O=C(O)Cc1c(Sc2ccccc2)c2ccccc2n1Cc1ccccc1 | -0.6
C=CCn1c(SCC(=O)Nc2c(C)cc(C)cc2C)nnc1-c1cccs1 | 0.92
COc1ccc(CCN2CC(C(=O)NCc3ccc(C)cc3)CC2=O)cc1OC (configuration not stated) | -0.38
Cn1c(=O)c2c(SCc3cccnc3)nc(-c3ccc(F)cc3)nc2n(C)c1=O | -0.21
Cc1ccc(C)c(Cn2cccc2C#N)c1 | -1.1
Cc1ccc(S(=O)(=O)CCc2nnc(NC(=O)c3cccs3)s2)cc1 | -0.93
COc1ccc2nc(SCC(=O)Nc3ccc(O)c(C(=O)O)c3)[nH]c2c1 | -0.39
CCOC(=O)C1CCN(C(=O)c2ccc(N3CC4CC(C3)c3cccc(=O)n3C4)c([N+](=O)[O-])c2)CC1 (configuration not stated) | -0.05
Oc1ccc(Cl)cc1C=Nc1ccc2nc(-c3cccc(F)c3)oc2c1 | -0.3
Cc1ccc(N=C2NC(=O)C(CC(=O)Nc3ccccc3)S2)cc1 (configuration not stated) | -1.8
COCCCn1c(=N)c(C(N)=O)cc2c(=O)n3cccc(C)c3nc21 | -1.3
CCN(CC)c1ccc(C(=O)NCc2ccco2)cc1 | 0.44
CC1CCN(Cc2cc([N+](=O)[O-])c(O)c3ncccc23)CC1 | 1.6
Cc1nc([N+](=O)[O-])c(C(=O)O)n1C | 1.1
Cc1ccccc1OCCCn1c2ccccc2c2nc3ccccc3nc21 | 0.47
CC(C)(C)C(O)Cn1c(=N)n(Cc2ccc(Cl)cc2)c2ccccc21 (configuration not stated) | -1.2
Cc1ccc(C(=O)OC(C)CN2C(C)CCCC2C)cc1 (configuration not stated) | -0.18
CCc1cccc(N=c2oc3c(C)ncc(CO)c3cc2C(=O)Nc2ccccc2F)c1 | -0.18
c1ccc(-c2csc(Nc3cccc4ccccc34)n2)cc1 | 0.38
O=C(COc1ccccc1)NCc1n[nH]c(=S)n1-c1cccc(C(F)(F)F)c1 | 0.38
Cc1cc2nnn(-c3ncnc4sc5c(c34)CCCC5)c2cc1C | -0.34
O=S(=O)(c1cccc2nonc12)N1CCN(Cc2ccc3c(c2)OCO3)CC1 | 0.6
O=C(NC(=O)C1CCNCC1)c1ccc(N2CCCC2=O)cc1 | 0.65
CCOC(=O)c1cnc2ccccc2c1Nc1ccccc1OCC | -1.1
C=C(C)C1Cc2n[nH]c(C)c2C1 (configuration not stated) | 0.52
COc1ccccc1Cn1c(SCC#N)nc2ccc(Br)cc2c1=O | -0.24
COc1cccc(NC(=O)Cn2cnc3sc(C)c(S(=O)(=O)N4CC(C)CC(C)C4)c3c2=O)c1 (configuration not stated) | -1.2
CCOc1ccc(N2C(=O)c3ccc(OC)c(OC)c3C2=O)cc1 | 1.6
COc1ccc(C2Nc3ccc4ccccc4c3C3=C2C(=O)CCC3)cc1OC (configuration not stated) | -1.4
O=C(CN1CCCCC1)Nc1c2c(nc3ccccc13)CCC2 | 0.44
CCOC(=O)C(C)(C)Sc1nc2c(c(=O)n1-c1ccc(Br)cc1)SCC2 | -0.12
COc1ccc(C2(c3ccc(OC)cc3OC)C=Cc3c(ccc4ccccc34)O2)c(OC)c1 | 1.1

Structural class, those above containing a furan ring, fused or not.
molecule | Measles inh
CCOC(=O)c1c(C)oc2ccc(N(C(=O)c3ccncc3)S(=O)(=O)c3ccc(C)cc3)cc12 | -0.32
CCOC(=O)c1c(NC(=O)c2ccco2)sc(C(=O)Nc2cc(C(F)(F)F)ccc2Cl)c1C | -1.3
O=C(CCNS(=O)(=O)c1cccs1)NCc1ccco1 | -0.81
COc1ccc(-c2cnnn2-c2ccc(NC(=O)c3ccc(Br)o3)cc2)cc1 | 0.82
COc1cc(NC(=O)c2ccc(-c3ccc([N+](=O)[O-])cc3)o2)cc(OC)c1 | -0.29
Nc1[nH]nc2nc(-c3ccco3)c3c(c12)CCCC3 | -0.43
CCN(CC)c1ccc(C(=O)NCc2ccco2)cc1 | 0.44

High-throughput results (PubChem BioAssay)
